From PubChem
VCAM-1 augmentation: boosters of cytokine-driven VCAM-1 levels – imaging, high-content imaging, pooled HUVEC, TNFa stimulus (AID 457) | Pooled HUVEC, TNFa-induced VCAM-1 immunofluorescence imaging; hits of this screen are not shown here | actives 0.2% (n = 10,000) | calls only;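 active = a top-ranked rise in VCAM-1 staining upheld on image or statistical review; inactive = the rest, including candidates rejected on review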;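 also: compounds tested at 5 µM in the well; cells exposed to compound for 24 hours before fixing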
VCAM-1 down: inhibitors of TNFa-induced VCAM-1 surface display, cell-based, plate reader, pooled HUVEC, TNFa stimulus (AID 454) | HUVEC TNFa-induced VCAM-1 surface immunofluorescence, plate reader; numbers were filed only for top-ranked candidate wells | inhibition, % at 5 µM | actives 0.2% (n = 10,000);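 active = compound among top-ranked inhibitors of TNF-induced VCAM-1 adhesion protein staining, with the hit upheld by image or statistical review; inactive = the rest, including hits rejected on review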;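 also: 0% = TNFa with vehicle and 100% = cells without TNFa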
VCAM-1 down imaging: inhibitors of TNFa-induced VCAM-1 surface display, imaging, high-content imaging, pooled HUVEC, TNFa stimulus (AID 456); HUVEC TNFa-induced VCAM-1 surface expression, immunofluorescence imaging; numbers were filed only for top-ranked candidate wells; one-dose inhibition, % at 5 µM; IC50 in µM for titrated hits; actives 0.2% (n = 10,000);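 active = top tenth filtered wells with inhibition above zero that passed visual or statistical confirmation; inactive = the rest, including hits rejected on review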;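 also: 0% = stimulated vehicle wells and 100% = unstimulated cells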
FPRL1 ligand: ligands of human FPRL1, also counter-screen for FPR ligands; inhibition, %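 (tested at 6.7 µM)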; actives 0.3% (n = 24,000); AID 441; FPRL1-expressing cells, fluorescent ligand binding inhibition, flow cytometry;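 also: 0% = buffer alone and 100% = receptor blocker peptide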
Target sequence (P25090 whole entry, looked up): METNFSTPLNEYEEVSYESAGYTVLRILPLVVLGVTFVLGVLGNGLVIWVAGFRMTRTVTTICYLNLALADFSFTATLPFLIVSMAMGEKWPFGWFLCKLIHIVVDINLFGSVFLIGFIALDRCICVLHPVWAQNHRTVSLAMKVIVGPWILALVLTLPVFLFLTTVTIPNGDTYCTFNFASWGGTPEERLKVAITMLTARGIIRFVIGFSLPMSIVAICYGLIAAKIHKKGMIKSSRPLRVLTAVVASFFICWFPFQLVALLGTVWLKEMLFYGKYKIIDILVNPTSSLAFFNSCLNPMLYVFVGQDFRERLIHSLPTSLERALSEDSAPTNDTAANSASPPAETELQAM
FPR binder: human FPR ligand, with FPRL1 counter-screen; P21462; AID 440; inhibition, %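 (tested at 6.7 µM)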; FPR-expressing cells, fluorescent ligand binding, flow cytometry; actives 0.74% (n = 24,000);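 also: 0% = buffer wells and 100% = receptor blocker peptide wells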
Target sequence (P21462 whole entry, looked up): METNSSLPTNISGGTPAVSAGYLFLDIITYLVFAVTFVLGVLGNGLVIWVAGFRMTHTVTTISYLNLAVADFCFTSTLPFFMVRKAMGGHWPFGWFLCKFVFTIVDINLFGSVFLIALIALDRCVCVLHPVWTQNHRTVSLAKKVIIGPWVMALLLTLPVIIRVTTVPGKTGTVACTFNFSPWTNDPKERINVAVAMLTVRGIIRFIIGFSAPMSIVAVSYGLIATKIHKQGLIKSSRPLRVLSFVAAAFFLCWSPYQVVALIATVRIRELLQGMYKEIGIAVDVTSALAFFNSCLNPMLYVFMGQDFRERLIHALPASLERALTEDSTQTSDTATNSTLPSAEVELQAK
Active calls of the source: *; i = inactive; / = no result given.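 The calls were made as follows, unless noted: active = mean above 30%; inconclusive = self-fluorescent; inactive = the rest.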 These rows are one share of the data; the hit share may differ from the screen's.

SMILES | VCAM-1 augmentation | VCAM-1 down | VCAM-1 down imaging | FPRL1 ligand | FPR binder
COCc1cc(C2C(C(=O)c3ccco3)=C(O)C(=O)N2CCOCCO)ccc1O (stereo unspecified) | / | / | / | -3 | 30
CCOc1ccc(NC2c3ccccc3C(=O)N2Cc2ccco2)cc1 (stereo unspecified) | i | i | i | 6 | 4
O=C1OCc2cc(NC(=O)C3COc4ccccc4O3)ccc21 (stereo unspecified) | / | / | / | -6 | -9
CC(=O)NCc1cccc(CNC(C)=O)n1 | i | i | i | 6 | 6
CCc1ccc(CNC(=O)CN2C(=O)COc3ccccc32)cc1 | / | / | / | 0 | -6
O=C(O)CCc1nnc2n(Cc3ccc(F)cc3)c(=O)c3ccccc3n12 | / | / | / | -2 | 4
O=C(c1cccs1)N(Cc1ccco1)Cc1cc2ccccc2[nH]c1=O | i | i | i | 5 | 3
Cc1c(C(=O)Nc2ccccc2)sc2nc(-c3ccccc3)cn12 | / | / | / | -4 | -6
CS(=O)(=O)N1CCCC(C(=O)NCCCN2CCN(Cc3ccccc3)CC2)C1 (stereo unspecified) | / | / | / | -3 | 2
Cc1cc(C)c(S(=O)(=O)Nc2ccc(OCC(=O)O)cc2)c(C)c1 | / | / | / | 4 | -5
COc1ccc(-n2nnnc2SCC(=O)N2CCOCC2)cc1 | i | i | i | -4 | 1
c1ccn2c(SCc3ccc4c(c3)OCCO4)nnc2c1 | i | i | i | 7 | 14
COCCN(CCOC)C(=O)c1cc2c(=O)n3ccccc3nc2s1 | / | / | / | 2 | -2
Cc1occc1-c1nnc(SCC(=O)c2ccc(F)cc2)n1Cc1ccco1 | i | i | i | -3 | 5
CCN(CC)S(=O)(=O)c1ccc(S(=O)(=O)N2CCN(CCC#N)CC2)cc1 | / | / | / | -2 | -1
CCOC(=O)C1CCCN(C(=O)CCC(=O)Nc2ccc3nc(N4CCOCC4)cc(C)c3c2)C1 (stereo unspecified) | / | / | / | -1 | 5
CC1CC(C)CN(c2ncnc3c2cnn3-c2ccc(Cl)cc2)C1 (stereo unspecified) | i | i | i | -13 | -4
CN1CCN(C(=O)c2cc3c(s2)-c2ccccc2S(=O)(=O)C3)CC1 | / | / | / | 3 | 1
CCC(CO)n1cnnc1-c1ccncc1 (stereo unspecified) | / | / | / | 0 | -5
CCOC(=O)N1CCN(C(=O)Nc2sc3nc4n(c(=O)c3c2C)CCC(C)CC4)CC1 (stereo unspecified) | / | / | / | -5 | 2
O=C(CSc1nnnn1-c1ccc(Cl)cc1)NC(=O)Nc1ccc2c(c1)OCCO2 | i | i | i | -6 | -10
O=C(NCCc1ccccc1)c1ccc2c(c1)N(Cc1ccccc1)C(=O)CS2=O (stereo unspecified) | / | / | / | -9 | -5
COc1ccc(-c2cc(C(F)(F)F)nc(N3CCOCC3)n2)cc1OC | / | / | / | 23 | -12
COCCCNC(=O)C1CCCN(C(=O)Nc2ccc(OC)cc2)C1 (stereo unspecified) | i | i | i | 12 | 2
C=CCSc1nnc(Cc2c(C)[nH]c3ccccc23)o1 | i | i | i | -2 | -2
CC(=O)c1cc(C#N)c(SCC(=O)OC(C)(C)C)nc1C | / | / | / | -2 | 2
CCn1c(=O)cc(SCC(=O)Nc2cccnc2)c2ccccc21 | i | i | i | -1 | 0
Cc1nn(-c2ccccc2)c2c1C(=O)NC(=O)C(C)(C)C2 | i | i | i | 2 | 5
FC(F)(F)c1cc(-c2ccccc2)nc(NCC2CCCO2)n1 (stereo unspecified) | / | / | / | -12 | -4
COc1ccc(/C=C(/C#N)c2cccnc2)cc1OC | i | i | i | -2 | 3

Whole records, looked up by structure. Order of values: VCAM-1 augmentation	VCAM-1 down	VCAM-1 down imaging	FPRL1 ligand	FPR binder
FC(F)(F)c1cc(-c2ccccc2)nc(NCC2CCCO2)n1 (stereo unspecified) reads /	/	/	-12	-4
CC(=O)c1cc(C#N)c(SCC(=O)OC(C)(C)C)nc1C reads /	/	/	-2	2
CCN(CC)S(=O)(=O)c1ccc(S(=O)(=O)N2CCN(CCC#N)CC2)cc1 reads /	/	/	-2	-1
O=C1OCc2cc(NC(=O)C3COc4ccccc4O3)ccc21 (stereo unspecified) reads /	/	/	-6	-9
CCC(CO)n1cnnc1-c1ccncc1 (stereo unspecified) reads /	/	/	0	-5

(listing goes on)
SMILES | VCAM-1 augmentation | VCAM-1 down | VCAM-1 down imaging | FPRL1 ligand | FPR binder
COc1ccc(CC(=O)Nc2c3c(nn2-c2cccc(C)c2C)CS(=O)(=O)C3)cc1 | / | / | / | 7 | -7
CC(O)c1nc2ccccc2n1C1CCCCC1 (stereo unspecified) | i | i | i | 9 | 17
CCn1cc(C(=O)NC2CCCC2)c(=O)c2cc(S(=O)(=O)N3CCOCC3)ccc21 | / | / | / | -2 | 2
Cc1cccc(N(C(=O)c2cnc3n(c2=O)CCS3)C2CCCCC2)c1 | / | / | / | 4 | 2
CCOC(=O)c1cnc(-n2nc(C)cc2C)nc1Nc1ccc(N(C)C)cc1 | i | i | i | -10 | -12
CCOc1ccc(S(=O)(=O)n2ccnc2)c2ccccc12 | / | / | / | 2 | -5
CCCN(CCC)S(=O)(=O)c1ccc(C(=O)NCc2ccc3c(c2)OCO3)cc1 | / | / | / | 0 | -1
CCCCN(CC)C(=O)C1CCC(=O)N(c2ccc(OC)cc2)C1c1ccc(OC)c(OC)c1 (stereo unspecified) | / | / | / | 2 | 7
N#Cc1cccc(NC(=O)Nc2cccs2)c1 | / | / | / | -7 | 5
Cc1ccc(NC(=O)Cn2cccc2)cc1Cl | i | i | i | -5 | -2
CCOC(=O)c1oc2c(O)c(O)ccc2c(=O)c1-c1nncn1-c1ccccc1 | / | / | / | 2 | -8
CCCCC(CC)C(=O)Nc1ccc(Cl)cn1 (stereo unspecified) | i | i | i | 13 | 10
Cc1cc2c(cc1C)/C(=C\C(N)=O)NC(C)(C)C2 | / | / | / | 10 | -11
CC(C)(C)C1CCc2onc(C(=O)Nc3cnn(Cc4ccc(F)cc4)c3)c2C1 (stereo unspecified) | i | i | i | 3 | 2
Cc1cc(C)n2c(SCc3ccc(C#N)cc3)nnc2n1 | / | / | / | -1 | -4
CCOc1ccc(-c2cc(CCCC(=O)NCc3ccco3)no2)cc1 | / | / | / | 7 | 10
CC(C)C(c1nnnn1CC1CCCO1)N1CCN(Cc2ccc3c(c2)OCO3)CC1 (stereo unspecified) | i | i | i | 0 | 1
COc1ccc(-c2cc(C(=O)NCC(C)C)no2)cc1 | / | / | / | 1 | 2
Cc1ccc(C)c(S(=O)(=O)N2CCC(c3nc4c(nnn4Cc4ccc(F)cc4)c(=O)[nH]3)CC2)c1 | / | / | / | -7 | -6
COc1ccc(-c2ccc(=O)[nH]n2)cc1 | / | / | / | 0 | 0
COc1ccc(-n2nnc3c(=O)n(C/C=C/c4ccccc4)cnc32)cc1 | i | i | i | -1 | 3
CC(=O)N1CCN(c2ccc(NCc3ccc(C)s3)cc2)CC1 | / | / | / | 6 | -1
CC(C)=CC(=O)N1CCCc2ccccc21 | i | i | i | 1 | -8
Cc1nnc(C)c2c(C)n(Cc3ccc4c(c3)OCO4)c(C)c12 | i | i | i | 3 | -1
Cc1ccc(S(=O)(=O)N2CCOCC(=O)NCCOCCNC(=O)COCC2)cc1 | i | i | i | 5 | 10
Cc1onc(-c2ccccc2)c1C(N)=O | i | i | i | -8 | -7
O=C(NCCN1C(=O)C2C3C=CC(C3)C2C1=O)Nc1ccccc1O (stereo unspecified) | / | / | / | -3 | 1
C=CCn1nnc2sc3c(c2c1=O)CCC(C)C3 (stereo unspecified) | / | / | / | 4 | -2
CCOc1c(C)cc2[nH]c(CCC(=O)O)nc2c1C | i | i | i | 3 | 4
Cc1nc2ccc(S(=O)(=O)N(C)CC(=O)N3CCc4ccccc4C3)cc2s1 | / | / | / | -5 | 2
COc1ccc(-n2c(=O)cc(N3CCN(Cc4ccccc4)CC3)[nH]c2=O)cc1 | i | i | i | -5 | 4
COc1ccc(N2C(=O)CCC(C(=O)N3CCCCC3)C2c2ccc(OC)c(OC)c2)cc1 (stereo unspecified) | i | i | i | -1 | 3
Cc1nnc(NC(=O)c2ccc(S(=O)(=O)N3CCCCCC3)cc2)o1 | / | / | / | 3 | 12
O=C(Nc1ccc2c(c1)OCCO2)C1CCCN(S(=O)(=O)c2cccs2)C1 (stereo unspecified) | / | / | / | 5 | 6
CCOc1nc(OCC)nc(-n2cc(-c3ccccc3)nn2)n1 | / | / | / | 3 | 0
Cc1nnc(NC2CCCCC2)[nH]c1=O | i | i | i | -1 | -1
O=C1c2cccnc2C(Nc2ccc(S(=O)(=O)N3CCCCCC3)cc2)N1Cc1ccccc1 (stereo unspecified) | / | / | / | 4 | 5
CCN1CCN(C(=O)Cn2ncc3c2-c2ccccc2OC3)CC1 | / | / | / | 1 | -4
CN(C)CCC(=O)c1ccc(Cl)cc1 | / | / | / | 5 | -2
Cn1c(C(=O)N2CCCC(C(=O)NCCN3CCOCC3)C2)cc2sccc21 (stereo unspecified) | / | / | / | 2 | -3
Nn1c(-c2ccccn2)nnc1-c1ccccn1 | / | / | / | 9 | 4
CC(=O)Nc1cccc(NC(=O)CSc2nnc(Cc3cccn3C)n2-c2ccc(C)cc2)c1 | / | / | / | 2 | 2
CCOc1ccc(OCC)c(NC(=O)C2CCN(S(=O)(=O)c3cnc[nH]3)CC2)c1 | i | i | i | -4 | -2
CCCCNS(=O)(=O)c1ccc(OC)c2ncccc12 | i | i | i | 9 | 0
Cc1cccc2sc(NC(=O)Cn3cccc3)nc12 | i | i | i | 3 | 4
CCCNS(=O)(=O)c1ccc(OCC(=O)Nc2ccccc2F)cc1 | i | i | i | -2 | -2
CC(=O)c1c(C)nc(-c2ccc3c(c2)OCO3)n1O | / | / | / | 2 | -4
COC(=O)c1[nH]c(C)c(/C(O)=C2\C(=O)C(=O)N(CCN3CCOCC3)C2c2cccnc2)c1C (stereo unspecified) | / | / | / | -18 | 21
O=C1CCCC2=C1C(c1cccc(Br)c1)n1nc(-c3ccco3)nc1N2 (stereo unspecified) | i | i | i | 3 | 10
CC1CN(c2nc3ccccc3nc2C(C#N)C(=O)OC2CCCCC2)CC(C)O1 (stereo unspecified) | i | i | i | -4 | -3

Two compounds from above, showing only FPRL1 ligand and VCAM-1 down:
canonical_smiles	FPRL1 ligand	VCAM-1 down
COc1ccc(/C=C(/C#N)c2cccnc2)cc1OC	-2	i
COc1ccc(CC(=O)Nc2c3c(nn2-c2cccc(C)c2C)CS(=O)(=O)C3)cc1	7	/

Remaining list, next part.
SMILES | VCAM-1 augmentation | VCAM-1 down | VCAM-1 down imaging | FPRL1 ligand | FPR binder
COc1ccc(NC(=O)CN2CCN(S(=O)(=O)c3ccc(Cl)cc3)CC2)cc1Cl | / | / | / | -7 | -6
N#Cc1ccc(N2CCN(C(=O)c3cccc(F)c3)CC2)c(F)c1 | / | / | / | -4 | 1
CCn1c(C(=O)NCCCN2CCc3ccccc3C2)cc2sccc21 | / | / | / | -5 | 8
CCOc1ccc(C(=O)N2CCN=C2SC)cc1OCC | / | / | / | 5 | -3
COc1cccc(C2c3c(oc4ccccc4c3=O)C(=O)N2CCCN2CCOCC2)c1 (stereo unspecified) | / | / | / | 7 | 6
O=C(c1cc(-c2ccco2)on1)N1CCN(C(c2ccccc2)c2ccccc2)CC1 | / | / | / | -1 | -2
O=C(Cc1ccccc1)n1nc(-c2ccccc2)nc1NCc1ccco1 | / | / | / | -1 | -3
Oc1c(CN2CCc3ccccc3C2)cc(Cl)c2cccnc12 | / | / | / | 2 | -4
CCOc1ccc(-n2c(Cc3cc(=O)[nH]c(=O)[nH]3)nnc2SCC(=O)NC2CCCC2)cc1 | / | / | / | 1 | -4
CC(C)C(=O)NC(C)C(c1cccs1)N1CCN(c2ccccc2)CC1 (stereo unspecified) | / | / | / | 10 | -7
Cc1nnc2n(C3CCCCC3)c(=O)c3c4c(sc3n12)CCC4 | / | / | / | 4 | -6
O=[n+]1c2c(n([O-])c3cc(F)c(N4CCCC4)cc31)CCC2 | i | i | i | -8 | 2
Cc1cc(C)nc(N2CCCC(C(=O)Nc3nc4ccc(S(C)(=O)=O)cc4s3)C2)n1 (stereo unspecified) | i | i | i | -10 | -1
CC(C)(C)OC(=O)N1CCC(C(=O)N[C@H](Cc2ccccc2)C(=O)O)CC1 | i | i | i | 1 | 3
CC1CCC(C(=O)NC(C(=O)N2CCC(N3CCCCC3)CC2)C(C)C)CC1 (stereo unspecified) | / | / | / | 0 | -4
CC1CCCCN1CCNc1nc(=S)[nH]c2ccccc12 (stereo unspecified) | / | / | / | 2 | 2
COc1ccccc1CNS(=O)(=O)c1ccc2[nH]cc(C(=O)O)c(=O)c2c1 | / | / | / | 2 | -2
